WNV protease inh – inhibitors of WNV NS2B-NS3 protease, primary screen, biochemical, fluorogenic substrate; Genome polyprotein (West Nile virus), P06935; fluorogenic substrate Ex360/Em465; active compounds read low; z-score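 (tested at a level between 10 and 100 µM)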; actives 0.18% (n = 65,000); AID 577, 2007;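 active = z-score at -3 or under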;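 also: score is relative to mean and spread of the compound wells of a plate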
Target sequence (P06935 1371-1501 limits assumed): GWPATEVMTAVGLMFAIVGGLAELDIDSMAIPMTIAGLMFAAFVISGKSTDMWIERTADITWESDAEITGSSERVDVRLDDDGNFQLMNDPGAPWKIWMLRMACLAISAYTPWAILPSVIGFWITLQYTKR
Target sequence (P06935 1502-1679 limits assumed): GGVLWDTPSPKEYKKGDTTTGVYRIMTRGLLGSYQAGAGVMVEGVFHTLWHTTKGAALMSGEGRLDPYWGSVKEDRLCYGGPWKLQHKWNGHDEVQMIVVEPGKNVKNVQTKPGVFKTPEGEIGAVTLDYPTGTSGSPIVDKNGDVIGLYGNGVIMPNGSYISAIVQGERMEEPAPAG
MT1-MMP promoter – inhibitors of MT1-MMP promoter transcription, cell-based, luciferase reporter, luminescence (AID 618). MT1-MMP promoter luciferase reporter cells, luminescence. calls from a first round at 10 µM; hits with a dose series show EC50 in µM. actives 0.62% (n = 87,000);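 active = over half of the reporter light lost at 10 µM or EC50 under 50 µM; inactive = the rest and hits that failed the dose series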;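 also: actives suppress MT1-MMP promoter-driven transcription so potencies describe inhibitors; HT1080 fibrosarcoma cells; overnight exposure; toxic or luciferase-blocking compounds were not removed from the actives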
Hsc70 ATP site – Hsc70 inhibitors, probe displacement, primary screen, biochemical, fluorescence polarization (AID 568) | one-dose displacement, % at 20 µM; IC50 in µM for titrated hits | Heat shock cognate 71 kDa protein (Homo sapiens) | 83,000 tested, under 10 active | Hsc70 fluorescence polarization, probe displacement; higher % means a stronger effect; strong numbers were not always called active;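 active = displacement above 50% without optical interference and an IC50 on retest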;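 also: ATPase domain with a fluorescein-tagged ATP probe; 0% = vehicle and 100% = excess ADP; read after one hour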
Starred values were filed as active, the others as inactive; i = inactive; / = not tested or not shown. This is a random part of the collection, and some 0.77% of all compounds hit somewhere here.

Molecule	WNV protease inh	MT1-MMP promoter	Hsc70 ATP site
CC1=CC(C)(C)N(C(=O)CSc2nccn2C)c2cc(C)ccc21	-0.47	i	-0.7%
CC(NC(=O)CSc1nnc(-c2cc3cc(Cl)ccc3o2)n1C)c1ccccc1 (stereo unspecified)	/	i	-1.8%
CCn1c(SCC(=O)c2ccc3c(c2)OCCO3)nnc1-c1ccco1	0.02	i	4.5%
Cc1nn(-c2ccccc2)c(Cl)c1C(=O)OC(C)C(=O)NC(=O)NC1CCCCC1 (stereo unspecified)	/	i	-1.5%
c1ccc(-c2oc3ncnc(NCCCn4ccnc4)c3c2-c2ccccc2)cc1	-0.86	i	1.1%
CC(C)=CCC/C(C)=C/CC(C)(C)CNCCN1CCNCC1	/	i	-0.2%
CCN(CC)P(=O)(/C(Cl)=C\Nc1c(C)n(C)n(-c2ccccc2)c1=O)N(CC)CC	0.68	i	-3.8%
Cc1cc2cc(CN(Cc3nnnn3C3CCCCC3)CC3CCCO3)c(=O)[nH]c2cc1C (stereo unspecified)	-0.09	i	-2.9%
Cc1ccc(S(=O)(=O)/N=C2\C(=O)c3ccccc3C([O-])=C2n2cc[n+](CCC(C)C)c2)cc1	/	i	-4.9%
CCc1ccccc1S(=O)(=O)Cc1ccc(C(=O)NCc2ccc3c(c2)OCO3)o1	-0.74	i	3.7%
O=C(CN(Cc1ccc(F)cc1)C(=O)Cn1nnc2ccccc21)NCC1CCCO1 (stereo unspecified)	0.33	i	1.7%
COc1ccc(S(=O)(=O)N2CCCC(C(=O)NC3CCCCC3)C2)cc1 (stereo unspecified)	-0.76	i	2.2%
COc1ccc(C(C)(C)C)cc1NC(=O)Nc1ccc2c(c1)OCO2	-0.54	i	7.0%
CCOC(=O)c1c(CN2CCCCC2)n(C)c2cc(Br)c(O)c(CN(C)C)c12	0.47	i	-0.1%
Cc1ccc(-c2c3c([nH]c(=S)c2C#N)CCCC3)o1	1.8	i	-22%
Cc1cc(C(=O)N2CCCCCC2)cs1	-1.2	i	-4.8%
O=C(c1cccs1)N1CCN(C/C=C/c2ccccc2)CC1	0.59	i	-12%
Fc1ccccc1OCCSc1nnnn1-c1ccccc1	-0.64	13µM*	-2.0%
O=C(CCC1N=C2c3ccccc3N=C(SCc3ccccc3Cl)N2C1=O)NCc1ccco1 (stereo unspecified)	1.4	i	-5.3%
COc1ccccc1-c1cn(S(=O)(=O)c2ccc(C)cc2)nc1N	-0.43	i	11%
CCOC(=O)N1CCN(C(=O)c2cc3c(=O)[nH]c4ccccc4c3s2)CC1	1	i	-6.4%
CN1CCN(/C=N/c2c(C#N)cnn2C)CC1	-0.14	i	-2.6%
Nc1nnc(-c2ccccc2Cl)s1	0.1	i	1.2%
CC(=O)Nc1cccc(NC(=O)CSc2ncc(-c3ccc(Cl)cc3)n2Cc2ccco2)c1	-0.62	i	-0.9%

Some entries already given with just Hsc70 ATP site and WNV protease inh.
| SMILES | Hsc70 ATP site | WNV protease inh |
| --- | --- | --- |
| COc1ccc(C(C)(C)C)cc1NC(=O)Nc1ccc2c(c1)OCO2 | 7.0% | -0.54 |
| CCOC(=O)c1c(CN2CCCCC2)n(C)c2cc(Br)c(O)c(CN(C)C)c12 | -0.1% | 0.47 |
| Cc1ccc(-c2c3c([nH]c(=S)c2C#N)CCCC3)o1 | -22% | 1.8 |

New compounds follow.
Molecule	WNV protease inh	MT1-MMP promoter	Hsc70 ATP site
O=c1/c(=C\c2ccc3c(c2)OCO3)sc2n1CCCN=2	0.0047	i	1.6%
COc1ccc(-c2nnc(SCC(=O)Nc3sc4c(c3C#N)CCC4)n2CC2CCCO2)cc1 (stereo unspecified)	-0.39	i	6.8%
COc1cc(C2C(C#N)=C(N)Oc3cc(C)n(CC4CCCO4)c(=O)c32)cc2c1OCO2 (stereo unspecified)	-0.28	i	-1.7%
CCCCNC(=O)N1CCOCCOCCN(C(=O)NCCCC)CCOCC1	0.84	i	-3.5%
Cn1c(=O)c2c3c(sc2n2c(SCC(=O)c4ccc(Cl)cc4)nnc12)COC(C)(C)C3	-0.71	i	2.3%
Cn1cccc1C(=O)OCC(=O)c1cc2ccccc2o1	1.6	i	-25%
O=C(CC1Oc2ccccc2NC1=O)NCCc1ccccc1 (stereo unspecified)	-0.26	i	3.2%
O=C(NC1CCCCCC1)C1c2ccccc2C(=O)N1Cc1cccnc1 (stereo unspecified)	-0.25	i	5.2%
COc1ccc(C(=O)Nc2ccccc2C(=O)NC(C(=O)NCc2ccco2)C(C)C)cc1 (stereo unspecified)	1.1	i	1.8%
Cc1cccc(S(=O)(=O)C(C#N)c2nc3ccccc3nc2N2CCCC2)c1 (stereo unspecified)	-0.87	i	62%
COC(=O)c1[nH]c2ccccc2c1NC(=O)CCN1CCN(C2CCCCC2)CC1	-1.1	i	-4.8%
O=C(O)C1CC(=O)N(Cc2cccnc2)C1 (stereo unspecified)	-0.77	i	-3.2%
CCCOc1ccc(OC(=O)c2ccc(Br)o2)cc1	0.24	i	-27%
Cc1ccc(OC(=O)COc2ccccc2C)c(-n2nc3ccccc3n2)c1	/	i	3.3%
CC(=O)OCC(=O)[C@@]1(O)[C@H](C)C[C@H]2[C@@H]3CCC4=CC(=O)C=C[C@]4(C)[C@@]3(F)[C@@H](O)C[C@@]21C	0.14	i	2.0%
C=CCN1C(=O)C(O)(CC(=O)c2ccc(OC)cc2OC)c2cc(Br)ccc21 (stereo unspecified)	0.06	i	4.3%
O=C1N(c2ccccc2)C2CS(=O)(=O)CC2N1c1ccc(Br)cc1 (stereo unspecified)	-0.69	i	-5.4%
C=CCNc1nc2c3ccccc3n(C(C)=O)c2s1	-0.77	i	-4.8%
CCN1CCN(Cc2coc3ccc(C)cc3c2=O)CC1	2.2	i	-1.6%
O=C(O)CCCc1ccccc1	0.01	i	-2.8%
CCCNC(=O)Nc1ccc2c(c1)N(C)C(=O)c1ccccc1S2	/	i	0.8%
CC(Sc1nnc(-c2cccs2)n1Cc1ccccc1)C(=O)NCc1ccc2c(c1)OCO2 (stereo unspecified)	/	i	0.7%
O=S(=O)(c1cccc2nsnc12)N1CCc2ccccc2C1	0.92	i	-7.2%
O=C(CCN1CCc2ccccc2C1)c1ccc2c(c1)OCCO2	-1.9	i	-0.1%
Cc1noc(C)c1S(=O)(=O)N1CCC(C(=O)N2CCN(Cc3ccc4c(c3)OCO4)CC2)CC1	-1.1	i	3.6%
O=C1CCCC2=C1C(Cc1ccccc1)C1=C(CCCC1=O)O2	-0.86	i	1.1%
COC(=O)[C@H](Cc1ccccc1)NC(=O)NCCc1ccc(S(N)(=O)=O)cc1	-0.72	i	-1.1%
CCCNC(=O)Cn1c(=O)oc2ccccc21	/	i	4.1%
CCC(=O)Nc1ccc2c(c1)OCCO2	/	i	-0.2%
O=C(O)C(Cc1ccccc1)N1C(=O)c2ccccc2C1=O (stereo unspecified)	/	i	4.3%
O=C(O)C1C2C=CC(C2)C1C(=O)NCCCN1CCOCC1 (stereo unspecified)	1	i	-5.2%
COCCCNC(=O)CCCC(=O)NCCCOC	0.05	i	5.8%
O=C(NCc1cn2ccccc2n1)c1ccc(Br)o1	-0.25	i	3.9%
O=C1CN(c2ccccc2F)C(=O)CN1c1ccccc1F	-0.19	i	3.9%
CC(Oc1ccccc1)c1ccnn1S(C)(=O)=O (stereo unspecified)	/	i	4.6%
Cc1cc2cc(OCC(=O)O)ccc2n1C	-0.22	i	6.6%
Nc1c(C(=O)NCCN2CCOCC2)c2nc3ccccc3nc2n1CCc1ccccc1F	1.4	i	4.6%
CCOc1c(Br)ccc2c1sc1nc[nH]c(=O)c12	0.06	i	-2.5%
Cc1ccc(CN(C(=O)C(F)(F)F)C(C(=O)NC2CCCCC2)c2ccco2)cc1 (stereo unspecified)	/	i	-2.1%
Cc1ccc(S(=O)(=O)NCCC(=O)N2CCCCC2)cc1	0.78	i	2.9%
COc1ccc(CCn2c(C)cc(C(=O)CSc3nnc(N)s3)c2C)cc1	-1.7	i	3.9%
O=C(Nc1ccc2c(c1)OCO2)C(c1ccc(Cl)cc1)N1CCN(C(=O)c2ccco2)CC1 (stereo unspecified)	-0.53	i	-3.5%
Cc1ccc(N(CC(=O)NCc2ccncc2)S(C)(=O)=O)cc1Cl	-1	i	-1.6%
Cn1c(N2CCN(C(=O)C34CC5CC(CC(C5)C3)C4)CC2)nc2ccccc21	-0.31	i	-4.1%
CCOC(=O)c1cnn(-c2c(Cc3ccccc3)c(C)nc3c(-c4ccccc4)c(C)nn23)c1N	/	i	0.2%
CCN(CC)S(=O)(=O)c1ccc2oc(SCC(=O)NCc3ccccc3)nc2c1	/	i	3.6%
CCOC(=O)C1CCN(S(=O)(=O)c2cccc(-c3cn4cccc(C)c4n3)c2)CC1	-0.79	i	-26%
CCOC(=O)c1cc2c(ccn2C)n1CC(=O)N1CCN(c2ccc(F)cc2)CC1	-2	i	-11%
CC(=O)c1cccc(NC(=O)N2CCCC2C(=O)Nc2ccccc2C)c1 (stereo unspecified)	0.45	i	2.4%
CC1(C)CC(=O)C2=C(C1)NC(=O)CC2C(=O)NCc1ccc(F)cc1 (stereo unspecified)	0.15	i	-3.1%
Cc1csc(=NC(=O)c2ccccc2)n1C	/	i	1.1%
CCC1Sc2ccccc2N(CC(=O)NCc2ccccc2OC)C1=O (stereo unspecified)	/	i	1.7%
Cn1c(=O)c2c(nc(SCC(=O)N3CCCc4ccccc43)n2C)n(C)c1=O	0.07	i	-0.1%
COC(=O)c1ccc2c(c1)N(C)CCS2	0.2	i	-2.2%
C=CCn1c(=N)c(C(=O)NCCCOC)cc2c(=O)n3cccc(C)c3nc21	3.5	i	-4.8%
Cc1ccc(N2C(=O)[C@@H]3[C@H](C2=O)C2c4ccccc4C=CN2[C@@H]3C(=O)c2ccco2)c(C)c1 (stereo partly specified)	-1.1	i	34%

More records follow.
Molecule	WNV protease inh	MT1-MMP promoter	Hsc70 ATP site
CC1=CC(C)(C)NC(=S)N1c1cccc(C)c1	/	i	1.6%
O=C(CN1CCCN(Cc2ccc(F)cc2Cl)C1=O)NC1CCCCCC1	/	i	-2.3%
O=C(O)c1ccccc1S(=O)(=O)NCC(O)COc1ccc(Br)cc1 (stereo unspecified)	0.49	i	2.2%
Cn1c(=O)n(CC(N)=O)c2ccccc21	-1.4	i	2.9%
COc1ccc(Nc2nc(C)c3ccccc3n2)cc1	-0.61	i	-0.7%
Cc1ccc(OC(C)C(=O)N2CCc3ccccc32)cc1 (stereo unspecified)	-0.86	i	0.3%
O=C(O)[C@@H](c1ccccc1)N1Cc2ccccc2C1=O	-2.5	i	1.2%
Cc1cc(NC(=O)COC(=O)[C@H](Cc2c[nH]c3ccccc23)NC(=O)c2ccc(F)cc2)no1	/	i	-3.1%
CN(C)S(=O)(=O)c1cccc(C(=O)N2CCc3ccccc32)c1	0.42	i	3.2%
COC(=O)C1=C(C)N(Cc2cccnc2)C(=O)C1	-0.71	i	-0.7%
CN1CCN(C(=O)c2ccc3c(c2)OCCO3)CC1	/	i	1.3%
Cc1noc(C)c1CSc1ccccc1C(=O)N1CCN(c2ccccc2)CC1	0.85	i	-0.5%
CC(=O)c1cc(-c2nc3ccccc3n2C)n(C)c1	-0.28	i	-0.4%
COc1ccc(N(C2CSC2)S(=O)(=O)c2ccccc2)cc1	1.2	i	-4.3%
COCCCNC(=O)CS(=O)(=O)Cc1nc(-c2ccccc2C)oc1C	-0.11	i	1.1%
COc1ccc(NC(=O)c2cccnc2Nc2ccc(OC)cc2)cc1	/	i	1.1%
CCOC(=O)C1CCCN(C(=O)c2cn(CC)c3ccc(S(=O)(=O)N4CCCC4)cc3c2=O)C1 (stereo unspecified)	-0.85	i	-0.3%
Cn1cccc1Cc1nnc(SCC(=O)Nc2ccc(F)cc2)n1-c1ccc(F)cc1	0.09	i	1.0%
CCN1CCCC1CNC(=O)C1CCN(Cc2nc(-c3cccc(Br)c3)oc2C)CC1 (stereo unspecified)	0.79	i	4.2%

Fetched by structure from above:
Molecule	WNV protease inh	MT1-MMP promoter	Hsc70 ATP site
COc1ccc(N(C2CSC2)S(=O)(=O)c2ccccc2)cc1	1.2	i	-4.3%
CCOC(=O)C1CCCN(C(=O)c2cn(CC)c3ccc(S(=O)(=O)N4CCCC4)cc3c2=O)C1 (stereo unspecified)	-0.85	i	-0.3%
Cc1noc(C)c1CSc1ccccc1C(=O)N1CCN(c2ccccc2)CC1	0.85	i	-0.5%
COCCCNC(=O)CS(=O)(=O)Cc1nc(-c2ccccc2C)oc1C	-0.11	i	1.1%

Bioassay records from PubChem BioAssay.
